Screening data (PubChem)
D2 agonist: activates the human D2 dopamine receptor. P14416. DiscoveRx PathHunter D2 beta-arrestin, luminescence, 90 min; 100% = 57 uM dopamine signal. activation, % (no concentration beside the values). 360,000 tested, 0.084% active. AID 624465; in the data active = activation above about 40%; inconclusive = about 15% to 40%; inactive = below about 15%; note: compound concentration not given in the record; the text of the record calls up to 30% inactive
Target sequence (P14416 whole entry, looked up): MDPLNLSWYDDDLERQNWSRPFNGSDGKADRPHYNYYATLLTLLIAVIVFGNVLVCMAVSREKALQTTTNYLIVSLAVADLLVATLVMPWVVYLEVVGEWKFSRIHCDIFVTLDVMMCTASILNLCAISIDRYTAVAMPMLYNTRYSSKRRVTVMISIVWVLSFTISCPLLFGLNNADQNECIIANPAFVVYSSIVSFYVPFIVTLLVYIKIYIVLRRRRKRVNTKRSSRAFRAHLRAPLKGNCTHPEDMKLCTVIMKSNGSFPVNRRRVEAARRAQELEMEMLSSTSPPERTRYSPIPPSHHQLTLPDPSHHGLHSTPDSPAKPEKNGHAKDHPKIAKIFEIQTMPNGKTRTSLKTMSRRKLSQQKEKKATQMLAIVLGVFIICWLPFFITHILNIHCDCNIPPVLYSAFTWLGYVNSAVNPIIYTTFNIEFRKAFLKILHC
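Agonist mode: compounds alone added to overnight-plated D2 PathHunter cells for 90 min at 37 C, with 57 uM final dopamine (EC100) defining full response. Beta-arrestin recruitment detected by chemiluminescent reagent, read after 1 h at ambient temperature.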
gsp antagonist: antagonizes gsp, the McCune-Albright syndrome mutation | gsp-mutant cells, cAMP HTRF, 30 min; control for the full effect not named in the record | Potency, µM (titrated, usually from 76.9 µM), for the others: at the highest dose activity change, negative = inhibition, usual class: inhibitors | 340,000 tested, 0.4% active; active = falling curve of any shape with a large fitted effect; inconclusive = falling curve, mostly with a smaller effect; inactive = flat or rising curve; cell line not stated here;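 note: intracellular cAMP measured with PDE inhibitor Ro 20-1724 present during compound exposure; potency is the fitted concentration of half-maximal effect; % is set by controls: 0 for no effect and ±100 for the full control effect; nearly all actives have a fitted effect of over 65% in size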
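Measurement of cellular cAMP by homogeneous time-resolved fluorescence following a 30 min compound exposure at 37C. The PDE inhibitor […] was present throughout; the assay buffer was DPBS with 0.05% BSA and 0.005% Tween 20.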
PINK1 expr mod: modulators of PINK1 expression | Potency, µM (top dose mostly 76.6 µM), without a hit: top-dose activation (PINK1 increase), most hits filed as activators | 410,000 tested, 0.2% active | PINK1 immunofluorescence, high-content cytometry, 24 h; active = well fitted activation curve with a large enough effect; inconclusive = small, poorly fitted or top-dose-only effect; inactive = flat fitted curve, though single readings scatter; cell line not stated here;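 note: potency is the fitted concentration of half-maximal effect; % of control where 0% means no effect; nearly all actives have a fitted effect of over 65% in size; a mitochondrial uncoupler was the plate control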
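PINK1 protein, normally rapidly degraded, was detected by immunofluorescence after 24 hour compound treatment of a stable cell line. Titration data (5 concentrations) came from laser-scanning cytometry, with CCCP-treated wells as controls.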
Menin-MLL FL inh: inhibitors of human menin-MLL interaction, wild-type MLL peptide; AID 1766; 290,000 tested, under 10 active; FP activity change, % at 61.4 µM; Fluorescence polarization, fluorescein-MLL peptide displacement from menin; inconclusive = falling polarisation curve, or a change in total fluorescence; inactive = total fluorescence flat and polarisation flat or rising; no compound was filed as active; the % refers to the polarisation; negative = inhibition;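 note: % of control where 0% means no effect; inhibitors lower the polarisation; unlabelled MLL peptide was the positive control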
gsp agonist: agonists of gsp mutant (McCune-Albright syndrome). AID 624287. gsp mutant cells, cAMP HTRF, 30 min; control for the full effect not named in the record. Potency, µM (series often up to 76.9 µM), for inactives: at the highest dose activation (cAMP increase), most hits filed as activators. 340,000 tested, 0.13% active; active = well fitted activation curve with a large enough effect; inconclusive = small, poorly fitted or top-dose-only effect, or another doubt; inactive = no such curve, though single readings can be large or run the other way; cell line not stated here;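 note: phosphodiesterase inhibitor Ro 20-1724 added with compounds to block cAMP breakdown; potency is the fitted concentration of half-maximal effect; nearly all actives have a fitted effect of over 60% in size; about a fifth of the inactives were tested at one dose only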
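Cells in DMEM/10% FBS with G418 were pretreated with compounds in DMSO plus […] (300 uM stock) for 30 min at 37C. cAMP was measured by HTRF (cAMP-d2 plus anti-cAMP antibody-K) after 30 min at room temperature.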
ClpP mod: qHTS Assay for Activators of ClpP; AID 651965, 2013; purified B. subtilis ClpP, FRET peptide cleavage, 20 min; ATP-dependent Clp protease proteolytic subunit (Bacillus subtilis (strain 168)), P80244; Potency, µM (doses to about 57.5 µM), inactives show at the top dose activity change, negative = active; 340,000 tested, 1.9% active; active = well fitted falling curve with a large enough effect; inconclusive = small, poorly fitted or top-dose-only effect; inactive = no such curve, though single readings can be large or run the other way; note: potency is the fitted concentration of half-maximal effect; the source files actives as falling curves though it sought activators and does not explain the sign; nearly all actives have a fitted effect of over 65% in size; many hits overshoot -100%
Target sequence (P80244 whole entry, looked up): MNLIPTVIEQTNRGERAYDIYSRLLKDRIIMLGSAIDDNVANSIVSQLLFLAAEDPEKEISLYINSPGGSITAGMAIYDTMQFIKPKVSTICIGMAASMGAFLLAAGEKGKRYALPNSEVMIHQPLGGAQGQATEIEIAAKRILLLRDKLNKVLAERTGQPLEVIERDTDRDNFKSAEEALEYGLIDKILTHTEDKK
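Purified B. subtilis ClpP, 10 microg/mL final in Tris/HCl pH8 with KCl, BSA, glycerol and Tween-20, cleaved an Abz/nitrotyrosine-quenched decapeptide. Fluorescence (ex 320, em 430) was read at 0 and 20 min at room temperature. Delta was normalized to 5.8 microM ADEP and DMSO/no-enzyme controls.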
Sfp inh: inhibitors of Bacillus subtilis Sfp phosphopantetheinyl transferase | Q9F4F7 | Biochemical Sfp PPTase activity, qHTS | Potency, µM, inactives show max response, negative = inhibition, most hits filed as inhibitors | 310,000 tested, 3.5% active | AID 1490; active = well fitted inhibition curve with a large enough effect; inconclusive = small, poorly fitted or top-dose-only effect, or another doubt; inactive = no such curve, though single readings can be large or run the other way;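 note: the enzyme is Sfp with the accession as filed and its product quenches rhodamine fluorescence; potency is the fitted concentration of half-maximal effect; 0% = enzyme reaction without inhibitor and -100% = no enzyme wells; top concentration of the series not given in the record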
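Step 1, compound plus 15 nM Sfp-PPTase, 15 min, room temperature. Step 2, add rhodamine-CoA (5 uM) and BHQ-2-YbbR (12.5 uM). Step 3, read 525/598 nm fluorescence at 0 and 30 min.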
* marks the source's active call; other numbers are inactive results; ? = inconclusive; . = no result given; & = joins results of further samples; ! = repeats disagree; [ ] = dose if it differs, or a comment. Hits appear at their usual frequency; 5.1% or so of the library scored in one or more.

Molecule	D2 agonist	gsp antagonist	PINK1 expr mod	Menin-MLL FL inh	gsp agonist	ClpP mod	Sfp inh
O=C(NCCC1=CCCCC1)c1cc(COc2ccc(F)cc2Cl)on1	3.9	5%	-0.7%	.	13%	0.7%	-5%
C[C@@H]1CN([C@@H](C)CO)C(=O)c2cccc(NC(=O)C3CCCCC3)c2O[C@@H]1CN(C)C(=O)NC1CCCCC1	-1.1	-31%	0.7%	.	0%	-5.5%	.
CCC(C)(C)C1CCC2(CC1)NC(=O)N(CC(=O)NC(C)CCc1ccccc1)C2=O (centres undefined)	-4.1	-2%	5.1%	.	-29%	-2.3%	.
CCOC(=O)NC1(C(F)(F)F)NC(=O)N(c2cccc(C(F)(F)F)c2)C1=O (centres undefined)	-1.7	4%	-0.2%	0.7	13%	0.9%	18%
N#CCCN(C1CCCCC1)S(=O)(=O)c1cccc2nsnc12	-0.3	2%	0.6%	3.0	-13%	1.0%	6%
Oc1cccc(-c2nc3ccccc3s2)c1	-2.3	-1%	4.6%	-0.4	?	-0.9%	0%
CCOc1ccc(S(=O)(=O)N2CCC(C(=O)NCc3cccnc3)CC2)cc1	-0.5	3%	-2.5%	4.0	-5%	-0.7%	12%
OC[C@H]1O[C@@H](c2nc3ccc(-c4nc(-c5ccc(Br)cc5)no4)cc3[nH]2)C[C@@H]1O	-2.4	.	10%	.	.	1.9%	.
COc1ccc(N2CCN(CCCNC(=O)Cn3c(=O)c4cccn4c4ccccc43)CC2)cc1	2.0	-24%	0.8%	1.7	-13%	-8.3%	12%
CC#CCN1c2ccccc2[C@]23C[C@@H](C(=O)OC)N(C(=O)C4CCC4)C2=NC(C(=O)OC)=C(C(=O)OC)[C@H]13	-1.9	-19%	1.8%	-1.8[11.7 µM]	.	-0.7%	5%&3%
CC(=O)OC1CCC2(O)CC1(C)CCC1C2CC1(C)C (centres undefined)	.	.	0.6%	-5.0	.	.	-5%
COCc1nnc(NC(=O)c2cccs2)s1	-3.0	2%	5.8%	3.6	27%	0.3%	12%
O=C(Oc1ccc(-c2ccccc2)cc1)c1ccco1	2.2	10%	8.2%	.	0%	.	.
COc1cccc(C2=N/C(=C\N(C)C)C(=O)O2)c1	-2.1	-2%	-1.2%	1.7	-1%	-1.6%	12%
CC(NC(=O)c1nn(C)c(=O)c2ccccc12)c1ccc(F)cc1 (centres undefined)	0.7	-10%	7.0%[38.3 µM]	-0.1	18%	-1.0%	3%
O=C(O)CCSc1nc2ccccc2s1	-1.2	-11%	3.6%[38.3 µM]	0.7	3%	0.4%	-17%
CC1SCC(NC(=O)c2cccc(Cl)c2)CS1 (centres undefined)	-4.0	6%	1.6%	-1.4	-6%[15.4 µM]	.	-1%
Cc1csc(NC(=O)CSc2nc(=O)[nH]c3c2CCCC3)n1	1.7	-17%	-1.7%	2.9	-38%[inhibitor]	-5.9%	18%
Cc1ccccc1NC(=O)C1CC(Cl)=CCC1C(=O)O (centres undefined)	-2.0	10%	-6.2%[38.3 µM]	13	-53%[inhibitor]	-0.9%	11%
O=C(CN1CCC(n2nnc3cc(C(F)(F)F)ccc32)CC1)Nc1ccc2c(c1)OCCO2	1.9	-28%	-1.6%	0.8	-9%	-1.3%	15%
Cc1ncc(S(=O)(=O)c2ccccc2)c(-c2ccc(Cl)cc2Cl)n1	-1.0	2%	0.5%	4.4	30%	16%	-13%
COc1ccc(NC(=O)CSc2ncccc2C(=O)OC(C)C)cc1OC	-2.6	-12%	2.3%[38.3 µM]	5.1	-5%	-1.7%	9%
O=C(Cc1cccs1)N/N=C/C(Br)=C/c1ccccc1	2.2	5%	12%[38.3 µM]	2.3	19%	-5.6%	-6%
COc1ccccc1N1CCN(C(=O)c2ccc(Cl)c(S(=O)(=O)NCc3ccco3)c2)CC1	0.7	-8%	2.4%	0.8	-10%	-0.4%	14%
CN([C@@H](Cc1ccc(OS(=O)(=O)c2cccc3cnccc23)cc1)C(=O)N1CCN(c2ccccc2)CC1)S(=O)(=O)c1cccc2cnccc12	?	-27%	0.0%	-1.4&-2.1	.	0.5%	11%&-3%
CN(C)CCNC(=O)c1ccc(Sc2ccc(Br)cc2)c([N+](=O)[O-])c1	-4.6	25%	-1.2%	1.1	4%[15.4 µM]	0.6%	-6%
CCn1c(=O)c(NC(=O)c2ccccc2)c2n(c1=S)CCCCC2	-3.4	1%	4.5%	2.9	-41%[inhibitor]	?	8%
CCCCCCCCNC(CO)(CO)CO	-0.9	6%	0.1%	2.7	5%	.	4%
Cn1c(SCC(=O)Nc2ccc(Cl)cn2)nnc1C1CC1	-0.3	6%	1.9%	.	22%	-0.2%	28%
O=C(CSc1ncnc2sccc12)N1CCCCC1	0.1	6%	-3.0%	.	3%	?	.
COc1ccc(-n2nnnc2CNC(=O)C2CC(=O)N(c3ccc(Cl)cc3)C2)cc1 (centres undefined)	-0.1	-3%	0.6%	.	-1%[15.4 µM]	.	.
CC(C)(C)NC(=O)C(c1ccncc1)N(C(=O)c1csnn1)C1CC1 (centres undefined)	-0.2	-5%	6.1%	2.2	21%	0.5%	8%
CC1=NC(=O)C(N=Nc2ccccc2C(=O)O)N1c1ccccc1 (centres undefined)	3.2	?	-0.6%	-1.4	-7%[15.4 µM]	.	-7%
CC(=O)c1cccc(NC(=O)c2cccc3c(-c4cnn(C)c4)coc23)c1	?	.	6.7%	.	.	0.8%	.
COc1cc2nc(N3CCN(C(=O)C4CCCO4)CC3)nc(N)c2cc1OC (centres undefined)	-4.8&-4.1	-4%&-10%	3.1%&-0.4%	2.5&1.1&4.8&1.3	.	4.6%&0.9%	56µM*!
CCC(=O)N(CCc1ccccc1C)Cc1cc2cc3c(cc2[nH]c1=O)OCO3	-1.3	5%	11%	3.4	-3%	?	6%
N#Cc1c(-c2ccc(Br)cc2)nc2n(c1=O)CCCS2	0.3	-5%	4.6%[38.3 µM]	0.1	1%	-12%	6%
Cc1ccc(C(=O)N/C(=C/c2ccc(Cl)cc2)C(=O)Nc2cccc(C(=O)O)c2)cc1	-5.0	0%	0.1%	0.5	-30%	-1.3%	-5%
COc1ccc(NC(=O)CN(C)C(=O)c2cc(S(=O)(=O)N(C)C)ccc2N2CCCC2)cc1	-0.2	-3%	-3.2%	.	7%	-4.4%	.
CCNC(=O)N(C)c1nncnc1C(=O)NC	-1.1	11%	-1.4%	-0.4	-8%[15.4 µM]	-2.0%	16%
Cc1ccc(S(=O)(=O)C2CCOC2=O)cc1 (centres undefined)	-3.3	2%	1.6%	2.3	-7%	-2.1%	13%
CC(/C=C/c1ccccc1)=N\Nc1ccccc1[N+](=O)[O-]	4.8	3%	5.3%	-2.7	?	.	-5%
COc1cc2sc(-c3ccccc3OC)c(-c3ccc(O)cc3)c2cc1OC	-1.0	3%	17%	.	.	?	.
Cc1ccc(C2CC(=O)N3CN(c4ccc(Br)cc4)CSC3=C2C#N)o1 (centres undefined)	-2.5	12%	0.5%[38.3 µM]	?	?	-1.2%	1.3µM*
Cc1cc(C(=O)OCC(=O)N(C)c2c(N)n(Cc3ccccc3)c(=O)[nH]c2=O)c(C)n1-c1ccccc1	-2.3	12%	0.5%	.	21%	2.0%	.
COCCn1c(SCC(=O)Nc2ccc(Cl)cn2)nnc1-c1ccncc1	-5.5	-10%	-0.1%	4.4	-2%[15.4 µM]	0.7%	8%
COCCNC(=O)C(OC(=O)c1cccs1)c1ccccc1 (centres undefined)	0.3	2%	0.5%	0.1	-14%	0.3%	7%
C1CCCN(CCCCN2CCCCCC2)CC1	-5.6	12%	0.3%	-1.1	-7%	-0.5%	13%
CCn1c(SCC(=O)N2CCN(c3ccc(F)cc3)CC2)nc2ccccc2c1=O	-2.4	-1%	-0.1%	6.2	?	-3.7%	-2%
COC(Cc1nnc(SC)n1-c1ccc(Cl)cc1)OC	-2.6	7%	-0.6%[38.3 µM]	-1.3	9%	-1.9%	9%

(further entries)
Molecule	D2 agonist	gsp antagonist	PINK1 expr mod	Menin-MLL FL inh	gsp agonist	ClpP mod	Sfp inh
ClCc1nc2ccccc2c2ccccc12	-3.6	12%	5.9%	3.4	-13%[15.4 µM]	.	6%
CCN1CCC(NC(=O)c2cc(OC)c(OC)cc2OC)CC1	-3.9	-9%	6.1%[38.3 µM]	1.0	7%	-27%	0%
Cc1cccc(CCNC(=O)Cn2ncc3c([nH]c4ccccc43)c2=O)c1	2.7	15%	4.0%	.	?	-9.4%	1%
CSCCC(NS(=O)(=O)c1ccccc1F)C(=O)NCc1cccnc1 (centres undefined)	-2.3	2%	-1.3%	.	17%[15.4 µM]	-1.0%	.
COc1cccc(C(NC(C)=O)c2nc(-c3ccccc3)cs2)c1 (centres undefined)	-1.3	.	3.7%	.	.	1.4%	.
CCOC(=O)C1=C(C)NC(=O)C(C(N)=O)C12CCCC2 (centres undefined)	0.9	10%	-3.3%	0.0	-26%	-1.0%	14%
COC(=O)c1ccc(-c2nn(C)c(=O)c3ccccc23)cc1	-4.9	-3%	1.1%	-0.4	1%	0.4%	20%
Cc1cc(=O)oc2cc(OCC(=O)NCCc3ccccc3)ccc12	-1.8	-19%	1.7%	1.4	1%[15.4 µM]	.	14%
Cc1cnc(C(=O)OCC(=O)NCc2cccc(Cl)c2)cn1	4.5	3%	0.3%	.	-25%	-2.7%	.
O=C(Nc1ccccc1C(=O)O)/C(=C/c1ccc(Cl)cc1Cl)NC(=O)c1ccco1	-2.9	-12%	-3.5%	.	-40%[inhibitor]	35µM*	3%
